Compound activity: PubChem BioAssay, Vanderbilt University
GIRK2 activ: opens human GIRK2 potassium channels. HEK293-GIRK2 thallium flux, Thallos fluorescence. calls only for hits at 25 µM. 63,000 compounds, 0.05% hits. P48051. AID 1259325;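 active = among the strongest 0.2% of first-round signals and kept after retests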;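 note: first round at about 10 µM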
Target sequence (P48051 whole entry, looked up): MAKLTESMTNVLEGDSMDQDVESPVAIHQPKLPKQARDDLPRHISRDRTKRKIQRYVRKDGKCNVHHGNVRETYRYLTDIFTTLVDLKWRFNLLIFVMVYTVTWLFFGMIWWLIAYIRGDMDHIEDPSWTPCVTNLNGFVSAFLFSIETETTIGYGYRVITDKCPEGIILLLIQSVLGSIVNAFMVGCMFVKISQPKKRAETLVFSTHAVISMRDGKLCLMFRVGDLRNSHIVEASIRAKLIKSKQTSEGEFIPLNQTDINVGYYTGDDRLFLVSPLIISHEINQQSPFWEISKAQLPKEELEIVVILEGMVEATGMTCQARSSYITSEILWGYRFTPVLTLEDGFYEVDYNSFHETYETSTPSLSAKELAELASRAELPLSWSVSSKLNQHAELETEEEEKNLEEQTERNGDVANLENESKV
Calls only; i = inactive. Not all compounds are listed. The share of hits here may be higher or lower than overall.

SMILES | GIRK2 activ
Cn1cc(C(=O)NCCC2=CCCCC2)c(S(=O)(=O)N2CCN(c3cccc(Cl)c3)CC2)n1 | i
O=C(CC1Nc2ccccc2NC1=O)NCCc1ccccc1 (centres undefined) | i
CCOc1ccccc1-c1nc(Cn2nnc(C(=O)Nc3cc(C)cc(C)c3)c2N)c(C)o1 | i
Cc1cc(C(F)(F)F)c(C#N)c(SCCCC(=O)c2ccc(F)cc2)n1 | i
CC(=O)c1ccc(NC(=O)Cn2ccn3nc(-c4ccc(Cl)cc4)cc3c2=O)cc1 | i
CCOc1cc(C)c(Cl)cc1S(=O)(=O)N1CCCCC1CC (centres undefined) | i
O=C(CCc1ccccc1)N(CCN1CCOCC1)c1nc2ccc(Cl)cc2s1 | i
CCCCn1cc(S(=O)(=O)c2ccc(OC)cc2)c(=O)c2cc(F)c(N3CCCCC3)cc21 | i
COc1cccc2cc(-c3nnc(NC(C)=O)o3)oc12 | i
COc1ccc(OC)c(S(=O)(=O)Nc2ccc(CN3CCN(C)CC3)cc2)c1 | i
O=C(c1ccc(Br)o1)N1CCN(c2ncnc3c2nnn3-c2ccccc2)CC1 | i
O=C(COc1ccccc1)Nc1cc(N2CCCC2)ncn1 | i
Cc1cc2nn(CC(=O)Nc3ccc(F)cc3)c(=O)n2c(Nc2ccccc2C)n1 | i
COc1ccc(CNC(=O)Nc2nnc(-c3cc(C)oc3C)o2)cc1OC | i
COc1ccccc1NC(=O)c1csc(Cc2nc(-c3ccccc3)no2)n1 | i
Cc1cc2oc(=O)cc(CN3CCOCC3)c2cc1C | i
CCOC(=O)C1CCN(C(=O)c2snc3c(=O)n(C)c(=O)[nH]c23)CC1 | i
CC(C)C(=O)Nc1c(-c2ccccn2)nsc1C(=O)NCc1ccc(C(C)C)cc1 | i
Cn1cc(C2=C(c3cn(CCCSC(=N)N)c4ccccc34)C(=O)NC2=O)c2ccccc21 | i
CCOC(=O)c1oc2cc(OC(=O)c3ccco3)ccc2c(=O)c1-c1ccc(OC)c(OC)c1 | i
Cc1cc(NC(=O)c2ccc3ccccc3c2)n(-c2nc3c(cnn3-c3cccc(C)c3C)c(=O)[nH]2)n1 | i
O=C(NCC(=O)N1CCN(c2ncccn2)CC1)c1c[nH]c2ccccc12 | i
CCOc1ccc(NC(=O)NCCN2CCN(c3ccccc3F)CC2)cc1 | i
O=C(Cn1nc2c(Sc3cccc(F)c3)nccn2c1=O)Nc1cccc(Br)c1 | i
Cc1nc(SCc2cccc(Cl)c2)[nH]c(=O)c1CC(=O)Nc1ccc2c(c1)OCO2 | i
Continuation.
SMILES | GIRK2 activ
COc1ccc(Cn2c(CO)cnc2SCC(=O)Nc2ccc([N+](=O)[O-])cc2)cc1 | i
CCOC(=O)c1ccc2nc(NC(=O)c3cc(-c4ccc(OC)cc4)on3)sc2c1 | i
COc1ccc(-n2c(C)c(C)n3c4c(=O)n(CC(C)=O)c(=O)n(C)c4nc23)c(OC)c1 | i
COc1cccc(/C=C/c2nc(C#N)c(N3CCN(C(=O)c4ccccc4Cl)CC3)o2)c1 | i
COc1ccc(NC(=O)NCC(C)(O)CSC)cc1OC (centres undefined) | i
O=C1[C@H](CC[C@H](O)c2ccc(F)cc2)[C@@H](c2ccc(O)cc2)N1c1ccc(F)cc1 | i
COc1ccc(-c2nc(C)c(-c3cc(=O)[nH]c(SCC(=O)Nc4ccccc4Cl)n3)s2)cc1 | i
Cc1cc(C)c(C)c(S(=O)(=O)NC2(C(=O)O)CCCCC2)c1C | i
Cn1c(=O)n(CCc2ccccc2)c(=O)c2c1nc1n2CCCN1Cc1ccccc1 | i
O=C(NCC1COC2(CCCC2)O1)C(=O)Nc1ccc([N+](=O)[O-])cc1 (centres undefined) | i
COc1cccc(-c2noc(C3CCN(S(=O)(=O)c4ccc(C)c(C)c4)CC3)n2)c1 | i
O=C(c1ccccc1)N1CCCc2cc(NS(=O)(=O)c3ccc(Cl)s3)ccc21 | i
CC(=O)N1CCCc2ccc(NC(=O)C(=O)Nc3ccc(Cl)cc3)cc21 | i
Cc1cccc(N2CCN(C(=O)Cn3ccc4ccccc43)CC2)c1 | i
COCC(C)OC(=O)C(C#N)c1nc2ccccc2nc1N1CCN(c2ccccc2)CC1 (centres undefined) | i
O=S(=O)(NCC(O)(c1ccccc1)C1CC1)c1ccc(C(F)(F)F)cc1 (centres undefined) | i
O=C(CSc1ccc(F)cc1)NCC#CCOc1ccc2c(c1)OCO2 | i
Nc1nc(N2CC(=O)C(CCc3ccccc3)C(=O)C2)ncc1[N+](=O)[O-] | i
CCOc1ccc(NC(=O)Cn2c(CC)nc3c(sc4cccc(F)c43)c2=O)cc1 | i
CC(=O)Nc1cc(C2CC2)nn1-c1nc(-c2ccccc2)cc(=O)[nH]1 | i
Cc1noc(CNC(=O)C2CCN(C(=O)c3cc(C)oc3C)CC2)n1 | i
CNC(=O)CSc1nc(C)cc(C(F)(F)F)c1C#N | i
O=C(c1ccco1)N(Cc1ccsc1)CC(F)(F)F | i
Cc1ccc(N2CC(C(=O)N3CCC(Oc4ncccc4Cl)CC3)CC2=O)cc1C (centres undefined) | i
O=C(NCCc1cccs1)C1CCN(S(=O)(=O)N2CCCC2)CC1 | i
(list continues)
SMILES | GIRK2 activ
Cc1cc(OCC(=O)NCCn2cnc(-c3ccc(F)cc3)cc2=O)cc(C)c1Cl | i
O=C(NC1CC(O)C(CO)C1)C1CC(=O)N(c2ccc(Cl)cc2)C1 (centres undefined) | i
CCOC(=O)C1CCN(C(=O)C2CCN(c3ncnc4c3sc3nc(C)cc(C)c34)CC2)CC1 | i
Cc1nc(-c2cccs2)sc1CNS(=O)(=O)c1ccccc1F | i
N#CCN1CCC(COCc2ccc(C#N)cc2)CC1 | i
Cc1ccc(-c2csc(-n3nc(C)cc3NC(=O)Cc3ccc([N+](=O)[O-])cc3)n2)cc1 | i
CCOC(=O)C1CCN(S(=O)(=O)c2c[nH]c(=O)[nH]c2=O)CC1 | i
O=C(NCC(c1ccc(F)cc1)N1CCOCC1)Nc1cccs1 (centres undefined) | i
C#CCCNS(=O)(=O)N(C)C | i
Cc1cc(NC(=O)c2cc3ccccc3o2)n(-c2nc3c(cnn3-c3cccc(C)c3C)c(=O)[nH]2)n1 | i
CC(C(=O)N1CCc2ccccc2C1)n1nnc2ccccc2c1=O (centres undefined) | i
O=C(CC1CCCC1)N(CCc1cccs1)Cc1ccoc1 | i
Cc1cccc(NC(=O)CN2C(=O)C(C)SC(C)C2=O)c1C (centres undefined) | i
CC12CC(c3ccccc3O1)C(C(=O)Nc1ccc3c(c1)OCO3)C(=O)N2CCO (centres undefined) | i
Cc1cc(C(F)(F)F)c(C#N)c(SCC(=O)NC2CCCCC2)n1 | i
Cc1cc(C(=O)NCCOc2cccc3cccnc23)c(C)o1 | i
CSc1ccc(CNC(=O)c2nnn(-c3ccc(F)cc3)c2-c2ccncc2)cc1 | i
Cc1ccc(C(=O)Nc2cccc3cnccc23)cc1S(=O)(=O)N1CCCCCC1 | i
Cc1cc(C)c(C)c(S(=O)(=O)NCc2ccc(C(=O)N3CCN(C)CC3)cc2)c1C | i
COc1cc(Br)c(C2NC(=O)NC(C)=C2C(=O)Nc2cc(C)ccc2C)cc1OC (centres undefined) | i
CCC(C)NC(=O)c1cccnc1-c1nc2ccccc2s1 (centres undefined) | i
CCCCN(C(=O)c1cc2cccnc2n(Cc2ccc(F)cc2)c1=O)c1ccccc1 | i
CC(=O)c1cccc(NC(=O)CSc2nnc3scc(-c4ccc(Cl)cc4)n23)c1 | i
CCOc1ccc(C(=O)Nc2ccc3c(c2)CCCN3C(=O)C2CC2)cc1OCC | i
CC(C)C(=O)Nc1ccc(S(=O)(=O)NCC2CCN(C(=O)c3ccncc3)CC2)cc1 | i
(more compounds)
SMILES | GIRK2 activ
COc1ccc(N2CC(C)Cn3c2nc2c3c(=O)n(C/C=C/c3ccccc3)c(=O)n2C)cc1 (centres undefined) | i
O=C(NCCc1cccs1)C1COCC(=O)N1Cc1ccccc1 (centres undefined) | i
Cn1c(=O)c2c(ncn2CC(=O)NCc2ccsc2)n(C)c1=O | i
Cc1ccc(Nc2ccc(NC(=O)Nc3ccc(F)c(Cl)c3)cc2)nn1 | i
Cc1ccc(N2CC(C)Cn3c2nc2c3c(=O)n(CC(N)=O)c(=O)n2C)cc1 (centres undefined) | i
O=C(c1ccc(Cl)cc1Cl)N1CCN(Cc2nnnn2-c2cccc(F)c2)CC1 | i
CCCNC(=O)c1sccc1S(=O)(=O)N(C)c1ccc(F)cc1 | i
Cc1cc(N(C)C)nc(NCCNC(=O)c2sc(-c3ccccc3)nc2C)n1 | i
Cc1ncn(CC(=O)NC2CCN(c3nccs3)CC2)c(=O)c1C | i
CCOC(=O)c1ccccc1NC(=O)Cn1nc2c(Sc3ccccc3)nccn2c1=O | i
Cc1cn2c3c(=O)[nH]c(=O)n(C)c3nc2n1CCCNc1ccc(Oc2ccccc2)cc1 | i
COc1ccc(Cl)cc1NC(=O)CN1CCN(S(=O)(=O)N2CCOCC2)CC1 | i
COc1ccc(CNS(=O)(=O)CCNC(=O)c2ccc(OC)cc2)cc1 | i
Cc1nn(C2CCS(=O)(=O)C2)c(C)c1N1CCN(S(=O)(=O)c2c(C)noc2C)CC1 (centres undefined) | i
CC(C)(C)c1cc(NC(=O)C2(c3cccs3)CCCC2)on1 | i
CCc1cccc(C)c1NC(=O)Cn1cccc(S(=O)(=O)N2CCCCCC2)c1=O | i
COc1ccc(S(=O)(=O)N2CCOC2CNC(=O)C(=O)NCCCN2CCOCC2)cc1 (centres undefined) | i
Cc1c(Cl)cccc1S(=O)(=O)N(CCc1cccs1)C1CC1 | i
Cc1cc(C(O)CCNC(=O)c2ccccc2F)c(C)o1 (centres undefined) | i
NC(=O)Cn1c(-c2ccncc2)nc2ccccc21 | i
CC(C)Sc1ccc(CC(=O)N(CCc2cccs2)C2CC2)cc1 | i
CC(=O)c1cccc(NC(=O)CSc2nccn2-c2ccc(C(=O)NCc3ccc(C)o3)cc2)c1 | i
COCCN1COc2ccc3c(=O)c(Oc4ccc(C(=O)OC)cc4)c(C(F)(F)F)oc3c2C1 | i
Cc1cn2c3c(=O)n(CC(N)=O)c(=O)n(C)c3nc2n1CCOCCO | i
CCOC(=O)Cn1c(C2CC(=O)N(CC(C)C)C2)nc2ccccc21 (centres undefined) | i

2 compounds picked at random from the list so far:
SMILES | GIRK2 activ
CNC(=O)CSc1nc(C)cc(C(F)(F)F)c1C#N | i
O=C(CSc1ccc(F)cc1)NCC#CCOc1ccc2c(c1)OCO2 | i

Later entries.
SMILES | GIRK2 activ
C#CCCC[C@@H](O)CCCCCCCCCCC(=O)O | i
CC(=O)Nc1nc2c(s1)CN(S(=O)(=O)c1cccc(Cl)c1C)CC2 | i
O=C(CCS(=O)(=O)Cc1ccccc1)NCc1ccccc1 | i
O=C1C2N=NN(Cc3nc(-c4ccc(Br)cc4)no3)C2C(=O)N1c1ccc2c(c1)CCC2 (centres undefined) | i
Cn1ncc2c(NCCC3=CCCCC3)ncnc21 | i
Cc1ccccc1CN1CC(=O)N(Cc2ccc(F)cc2)c2ccccc2S1(=O)=O | i
COc1ccc(S(=O)(=O)N2CCCCC2CC(=O)NC2CCCC2)cc1 (centres undefined) | i
O=C(O)c1cc(F)cc([N+](=O)[O-])c1 | i
NCc1ccc(S(N)(=O)=O)cc1 | i
COc1ccccc1C(=O)NCC#CCN(C(C)C)C(C)C | i
CCCCCNC(=O)CCc1csc(NC(=O)Nc2cccc(Cl)c2)n1 | i
Cc1cc(NC(=O)c2ccc(F)c(F)c2)n(-c2nc(-c3ccccc3)cs2)n1 | i
COCCNC(=O)Nc1nc2c(s1)C(=O)CC(C)(C)C2 | i
O=c1c(O)c(-c2ccccc2)oc2ccccc12 | i
O=C(Nc1ccc(Cl)cc1)N1CCC(c2nnc(-c3ccco3)s2)CC1 | i
CS(=O)(=O)N1CCC(C(=O)N2CCN(CCNC(=O)c3ccsc3)CC2)CC1 | i
COc1ccc(C)cc1NC(=O)CSc1nccnc1N1CCN(c2ccccc2OC)CC1 | i
CC(=O)Nc1nc2c(s1)CN(C(=O)c1cc(=O)c3ccccc3o1)CC2 | i
Cc1ccc(N2CC(c3nc4ccccc4n3CC(C)C)CC2=O)cc1Cl (centres undefined) | i
CC1(C)OB(c2ccc(OCCCN3CCOCC3)cc2)OC1(C)C | i
N#Cc1ccsc1NC(=O)Nc1cccs1 | i
COc1ccc(NC(=O)C(=O)NCC(c2ccc3c(c2)CCO3)N(C)C)cc1Cl (centres undefined) | i
Cc1csc2ncc(C(=O)NCCc3ccc(S(N)(=O)=O)cc3)c(=O)n12 | i
O=C(NCCn1ncccc1=O)c1ccc(-c2ccccc2)cc1 | i
COc1ccc(CC2c3cc(OC)c(OC)cc3CC[N+]2(C)CCC(=O)OCCCCCOC(=O)CC[N+]2(C)CCc3cc(OC)c(OC)cc3C2Cc2ccc(OC)c(OC)c2)cc1OC (centres undefined) | i
O=C(c1cc(-c2ccco2)on1)N1CC(Oc2nc3c(C(F)(F)F)cccc3s2)C1 | i
COc1cccc(S(=O)(=O)Nc2ccc(C(=O)NCc3ccco3)cc2)c1 | i

Molecules above containing two or more sulfur atoms, in the order listed:
SMILES | GIRK2 activ
COc1ccc(-c2nc(C)c(-c3cc(=O)[nH]c(SCC(=O)Nc4ccccc4Cl)n3)s2)cc1 | i
O=C(c1ccccc1)N1CCCc2cc(NS(=O)(=O)c3ccc(Cl)s3)ccc21 | i
O=C(NCCc1cccs1)C1CCN(S(=O)(=O)N2CCCC2)CC1 | i
Cc1nc(-c2cccs2)sc1CNS(=O)(=O)c1ccccc1F | i
CC(=O)c1cccc(NC(=O)CSc2nnc3scc(-c4ccc(Cl)cc4)n23)c1 | i
CCCNC(=O)c1sccc1S(=O)(=O)N(C)c1ccc(F)cc1 | i
Cc1nn(C2CCS(=O)(=O)C2)c(C)c1N1CCN(S(=O)(=O)c2c(C)noc2C)CC1 (centres undefined) | i
Cc1c(Cl)cccc1S(=O)(=O)N(CCc1cccs1)C1CC1 | i
CC(C)Sc1ccc(CC(=O)N(CCc2cccs2)C2CC2)cc1 | i
CC(=O)Nc1nc2c(s1)CN(S(=O)(=O)c1cccc(Cl)c1C)CC2 | i
CS(=O)(=O)N1CCC(C(=O)N2CCN(CCNC(=O)c3ccsc3)CC2)CC1 | i
N#Cc1ccsc1NC(=O)Nc1cccs1 | i
Cc1csc2ncc(C(=O)NCCc3ccc(S(N)(=O)=O)cc3)c(=O)n12 | i
